Screens deposited in PubChem by National Center for Advancing Translational Sciences (NCATS).
N370S GC: inhibitors or activators of N370S glucocerebrosidase for Gaucher disease; P04062; N370S GC spleen homogenate, 4MU-glucoside fluorescence; hit rate 0.092% among 330,000; Potency, µM (top dose mostly 59.4 µM), for inactives: top-dose activity change, negative = inhibition, most hits filed as inhibitors;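 further: 0% = full enzyme activity and -100% = no enzyme basal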
FEN1 inhibitor: human FEN1 inhibition; Recombinant FEN1 flap cleavage, fluorescence, 15 min; hit rate 0.35% among 390,000; Potency, µM (titrated, usually from 114 µM), without a hit: at the top dose activity change, negative = inhibition, most hits filed as inhibitors; further: nearly all actives have a fitted effect of over 65% in size
Target sequence (P39748 whole entry, looked up): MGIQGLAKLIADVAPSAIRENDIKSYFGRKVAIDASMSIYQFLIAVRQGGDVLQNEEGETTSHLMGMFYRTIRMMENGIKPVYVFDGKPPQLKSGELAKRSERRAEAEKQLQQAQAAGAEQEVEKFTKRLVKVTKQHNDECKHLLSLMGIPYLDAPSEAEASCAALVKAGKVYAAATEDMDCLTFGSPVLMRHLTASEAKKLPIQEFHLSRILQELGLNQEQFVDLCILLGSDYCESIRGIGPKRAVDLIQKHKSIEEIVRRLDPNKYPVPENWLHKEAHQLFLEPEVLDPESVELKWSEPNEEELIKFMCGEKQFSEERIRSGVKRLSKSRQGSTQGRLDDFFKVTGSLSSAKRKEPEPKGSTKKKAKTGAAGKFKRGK
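Potency values derive from four-parameter Hill fits of normalized qHTS data. The reaction used 10 nM FEN1 preincubated 15 min at room temperature with compound, then 50 nM DNA substrate, read at 0 and 15 min.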
* = called active by the depositor; ? = inconclusive; nt = not tested or not shown; & = joins results of further samples. The call rests on the fitted dose curve; in most records, active means well fitted curve in the direction sought with a large enough effect; inconclusive means small, poorly fitted or top-dose-only effect, or another doubt; inactive means no such curve, though single readings can be large; an effect the other way counts as inactive or inconclusive. Unless noted, on the % scale 0 is the no-effect control and ±100 the full control effect; potency means the concentration at half of the fitted maximal effect. Not all compounds are listed, and most or all hits are left out here.

SMILES | N370S GC | FEN1 inhibitor
COc1cc(/C=C(/C#N)c2nc3ccccc3[nH]2)ccc1OC(=O)c1ccco1 | -4% | 2%
CC(C)=CC(=O)Nc1ccc(S(=O)(=O)Nc2onc(C)c2C)cc1 | -7% | -9%
Cc1ccsc1/C=N\NC(=O)CC(=O)NCc1ccccc1 | 4% | 2%
Cc1nnn(-c2nonc2N)c1C(=O)N/N=C/c1cccc2ccccc12 | 1% | -6%
Clc1ccc(-c2cc(COc3ccc4ccccc4c3)no2)cc1 | 5% | -6%
CCOc1ccc2sc(NS(=O)(=O)c3ccc(N)cc3)nc2c1 | 0% | -3%
COc1ccc(C(=O)C2CCCN(C(=O)CCc3scnc3C)C2)c(C)c1 (centres undefined) | 11% | 16%
Cc1ccc(CCNS(=O)(=O)c2cnc[nH]2)cc1 | 0% | 5%
CCCCCCN(C(=O)CCCCCN1C(=O)NC(c2ccc(-c3ccccc3)cc2)C(C(=O)OCc2ccccc2)=C1C)C(C(=O)NCCCC)c1ccc(O)cc1 (centres undefined) | 3%&8% | nt
CCOC(=O)C1=C(O)/C(=C/c2ccc(OCC(=O)O)c(OCC)c2)SC1=Nc1ccc(OC)cc1 | -5% | -13%
COc1ccc(C(=O)N(CCCO)Cc2cc3c(C)ccc(C)c3[nH]c2=O)cc1OC | -1% | -4%
Fc1ccc(Nc2nc(N3CCOCC3)nc(N3CCOCC3)n2)cc1 | -8% | -19%
O=C(Nc1ccc2c(c1)OCO2)c1ccc(N2CCCC2)c([N+](=O)[O-])c1 | 8% | 5%
CCOCCCNC(=O)c1c[nH]c2cc(OC)ccc2c1=O | -25% | 5%
CN1CCN(c2ccc(-c3ccnn3C(=O)Nc3cccc(C(F)(F)F)c3)cc2)CC1 | 4% | -13%
COC(=O)[C@@]1(Cc2ccc(OC)cc2)[C@H]2c3cc(C(=O)N(C)C)[nH]c3C[C@H]2CN1C(=O)c1ccccc1 | 2%&-8% | -2%
CC(C)c1ccc2c(c1)C1Cc3ccccc3C1N2 (centres undefined) | 28% | -13%
COC(=O)c1sccc1NC(=O)/C=C/C(=O)O | 4% | 18%
COc1ccc(OC)c(-c2cc(C(=O)N3CCCc4ccccc43)no2)c1 | 25% | -13%
O=C(Nc1ccc(Cl)cc1)c1csc(-c2ccncc2)n1 | 5% | -4%
Cn1cnc(S(=O)(=O)N2CCC(C(=O)Nc3ccc(OC(F)(F)F)cc3)CC2)c1 | nt | -6%
CCN(C(=O)CSc1nnc(Nc2ccc(OC)cc2)s1)C1CCS(=O)(=O)C1 (centres undefined) | nt | -6%
COC(=O)N1C(C)=Cc2ccccc2C1CC(C)=O (centres undefined) | 6% | nt
COc1cc(C(=O)Nc2ccc3nc(SCc4ccc(C)cc4)sc3c2)cc(OC)c1OC | nt | -8%
Cc1ccccc1OCC(=O)Nc1sc2c(c1C#N)CC(C)(C)NC2(C)C | 0% | 0%

Arranged by count of non-hydrogen atoms (falling): part of the list above.
SMILES | N370S GC | FEN1 inhibitor
COc1ccc(C(=O)N(CCCO)Cc2cc3c(C)ccc(C)c3[nH]c2=O)cc1OC | -1% | -4%
Fc1ccc(Nc2nc(N3CCOCC3)nc(N3CCOCC3)n2)cc1 | -8% | -19%
Cc1ccc(CCNS(=O)(=O)c2cnc[nH]2)cc1 | 0% | 5%

Some of the entries so far, comma-delimited.
structure,N370S GC,FEN1 inhibitor
Cc1nnn(-c2nonc2N)c1C(=O)N/N=C/c1cccc2ccccc12,1%,-6%
Clc1ccc(-c2cc(COc3ccc4ccccc4c3)no2)cc1,5%,-6%
CCOc1ccc2sc(NS(=O)(=O)c3ccc(N)cc3)nc2c1,0%,-3%
COc1ccc(C(=O)C2CCCN(C(=O)CCc3scnc3C)C2)c(C)c1 (centres undefined),11%,16%
Cc1ccc(CCNS(=O)(=O)c2cnc[nH]2)cc1,0%,5%
CCCCCCN(C(=O)CCCCCN1C(=O)NC(c2ccc(-c3ccccc3)cc2)C(C(=O)OCc2ccccc2)=C1C)C(C(=O)NCCCC)c1ccc(O)cc1 (centres undefined),3%&8%,nt

(more compounds)
SMILES | N370S GC | FEN1 inhibitor
CCOC(=O)C1CCN(S(=O)(=O)c2ccc(OC)c(C(=O)N3CCCCC3)c2)CC1 | -7% | 1%
Cc1csc(SCC(=O)N(c2ccccc2)C(C)C)n1 | -6% | 2%
Cc1ccc(C)c(NC(=O)COc2cccc3c2CCN(Cc2ccccc2C)C3=O)c1 | 1% | 12%
O=S(=O)(N1CCOCC1)n1nnc2ccccc21 | -4% | -3%
CC1CCc2c(sc(/N=C/c3cccnc3)c2C(N)=O)C1 (centres undefined) | 12% | -2%
Cc1cccc2cccnc12 | 1% | 23%
CC(NC(=O)C1CC12CCC2)c1ccccc1 (centres undefined) | 13% | 6%
O=C(NC(=O)N1CCCCC1)c1ccc(Cl)cc1 | 1% | -5%
CCOC(=O)C1CCN(Cc2cnc(Oc3ccc(N)cc3)s2)CC1 | 10% | 6%
COc1cc(/C=C/C(=O)O)cc(S(=O)(=O)NC2CC2)c1OC | 5% | 8%
CC(=O)Nc1ccc(NC(=O)CSc2nnc(NC(=O)c3ccco3)s2)cc1 | 2% | 1%
COc1ccc(N(CC(=O)N2CCc3ccccc3C2)S(C)(=O)=O)cc1OC | 3% | -7%
CN(Cc1ccccc1)C(=O)CSc1nc2ccccc2[nH]1 | -1% | -3%
CCC/C(=N\NC(=O)c1ccc(CSc2nncn2C)cc1)c1ccccc1 | 4% | 1%
COc1ccccc1-n1cnc2cc(NC(=O)c3ccco3)ccc21 | 1% | -4%
CC(=O)C(Sc1nnnn1-c1ccccc1)C(C)=O | 2% | 9%
Cc1cc2c(=O)n(C)c(SCC(=O)c3cc4ccccc4o3)nc2s1 | ? | -25%
COc1cccc(C(C(=O)NC2CCCC2)N(CC2CCCO2)C(=O)Cc2cccs2)c1 (centres undefined) | 5% | 0%
O=C(Nc1nccs1)c1ccc(-c2ccc(Cl)cc2)o1 | -16% | 11%
O=C(Nc1nnc(Cc2ccccc2)s1)C1CCC1 | -11% | -10%
COc1ccccc1C(=O)Nc1ccc(OCC(=O)N2CCCCC2)cc1 | nt | 7%
O=C(OCC(=O)C12CC3CC(CC(C3)C1)C2)c1cccnc1Cl | 2% | 2%
O=C1OC(c2ccccc2)c2ccccc21 (centres undefined) | 7% | -9%
CCC1(c2ccccc2)NC(=O)N(CC(=O)Nc2cccc(C#N)c2)C1=O (centres undefined) | -14% | -4%
COc1cccc(C(=O)NNC(=O)CCN2CCN(c3ccccc3)CC2)c1 | nt | -5%
Other structures
SMILES | N370S GC | FEN1 inhibitor
Cc1ccc2c(c1)c(N1CCCC1=O)c(C(=O)Nc1ccc(F)cc1F)n2C | nt | 6%
O=C(COC(=O)CCC1CCCCC1)Nc1ccc(OC(F)F)cc1 | -15% | -19%
O=c1[nH]c(SCc2cccc([N+](=O)[O-])c2)nc2[nH]ncc12 | 3% | -7%
O=C(NCc1cccs1)C1CC(c2ccc(Cl)c(Cl)c2)=NO1 (centres undefined) | -5% | 12%
Cc1cccc(-n2c(-c3ccco3)nc3nc4ccccc4nc32)c1 | 6% | nt
Cc1cc(=O)n(-c2ccc(Cl)cc2)c(=O)[nH]1 | 7% | 2%
COc1ccc(CNC(=O)COC(=O)c2ccc(C)c(S(=O)(=O)N3CCOCC3)c2)cc1OC | nt | 14%
COCCN(CCOC)S(=O)(=O)c1ccc(C(=O)Nc2nc(-c3ccccc3)c(C(=O)c3ccccc3)s2)cc1 | -4% | -13%
CS(=O)(=O)NCCNc1ncc(C(F)(F)F)cc1Cl | -9% | -3%
COc1cccc(CNc2nc3nc(C)cc(=O)n3[nH]2)c1 | 7% | -12%
Cn1nc(C(F)(F)F)cc1C(=O)O | 1% | 3%
COc1cccc(C(=O)NCCn2ccc3ccccc32)c1 | 2% | 1%
Cc1cc(-n2nc(C)cc2C)n2ncc(-c3ccccc3)c2n1 | 7% | -3%
CCN1C(=O)c2cccc3c(S(=O)(=O)N4CCNCC4)ccc1c23 | nt | 14%
O=C(Cc1ccccc1)NC(c1ccco1)c1c(O)ccc2ccccc12 (centres undefined) | ? | -12%
COc1ccc(C=O)cc1Cn1cnc2c(cnn2C)c1=O | 8% | -7%
c1ccc2c(NCC3CCCO3)nc(N3CCCCC3)nc2c1 (centres undefined) | 16% | 10%
COc1cccc(CN2CCNC(=O)C2CC(=O)NC2CCCC2)c1OC (centres undefined) | 3% | 9%
CCOc1ccc(-c2cc(C(=O)NN)[nH]n2)cc1 | -29% | -2%
Cc1cccc(N2CCN(C(=O)C(C)C)CC2)c1C | 19% | -5%
COc1cccc(/C=N/n2cnnc2)c1OCc1ccccc1 | -1% | 12%
O=C(CCSc1ccccc1)NCc1cccnc1 | -2% | 3%
Cc1cc(NC(=O)CSc2nc3c([nH]c4ccccc43)c(=O)n2-c2ccccc2)no1 | nt | -10%
CCc1cccc(N(CC(=O)NCc2ccc(F)cc2)C(=O)c2csnn2)c1 | -1% | -6%
COc1ccc(C2=NOC(CNC(=O)c3ccccc3Br)C2)c(OC)c1 (centres undefined) | -14% | 17%
Remaining list, next part:
SMILES | N370S GC | FEN1 inhibitor
O=C(C1CCC(CNc2c(N3CCOCC3)c(=O)c2=O)CC1)N1CCN(c2ccccc2)CC1 (centres undefined) | 0% | 2%
O=[N+]([O-])c1ccc(S(=O)(=O)CC(CN2CCCCC2)N2CCCCC2)cc1 (centres undefined) | -3% | 0%
CC1(C)C(=O)Nc2ccccc2N1C(=O)CSc1nnc2c(Cl)cc(Cl)cn12 | 6% | -3%
Cc1c2ccccc2c(C)c2c1ccc1ccccc12 | ? | -3%
COc1cc(C(=O)NCc2nnc(SCC(=O)NCc3ccco3)o2)cc(OC)c1OC | -2% | 3%
O=C(Cc1ccc(F)cc1)N1CCN=C1SCc1ccc([N+](=O)[O-])cc1 | 0% | -16%
Cc1ccc(-c2noc(CCCOc3ccc(Cl)cc3Cl)n2)cc1 | 5% | -6%
O=C(NNC(=O)C1CCC1)c1ccc(Cl)cc1 | -3% | 21%
CCOC(=O)C1CCN(C(=O)c2cccc(NS(=O)(=O)c3ccc(Br)cc3)c2)CC1 | nt | -18%
O=C(Cc1ccc(Cl)cc1)Nc1ccccc1C(=O)Nc1ccc(C(=O)O)cc1 | 15% | -5%
O=c1[nH]cnc2ccccc12 | 11%&2%&0% | 0%
CCOc1ccc(N=C2SC(C(=O)O)CC(=O)N2C)cc1 (centres undefined) | -1% | 5%
Cc1ccc(NC(=O)c2ccc3[nH]c(C)cc(=O)c3c2)c(C)c1 | nt | -5%
CN(C(=O)c1cccc(NC(=O)C2CCCN(C(=O)OC(C)(C)C)C2)c1)C1CCCC1 (centres undefined) | nt | -9%
Cc1nn(-c2ccc(Cl)cc2)c(N)c1C(O)(CSc1nccn1C)C(F)(F)F (centres undefined) | -1% | -4%
COc1ccccc1CNC(=O)COC(=O)Cc1cccc(F)c1 | nt | -5%
CCOc1ccc(C2C(C#N)=C(N)Oc3cc(C)[nH]c(=O)c32)cc1OC (centres undefined) | 0% | -16%
O=C(COC(=O)Cc1ccsc1)Nc1ccc(F)cc1Cl | nt | 4%
COc1cccc2sc(Nc3nc(C)c(C(C)=O)s3)nc12 | 10% | -4%
COc1ccc(-n2c(SCC(=O)N3CCOCC3)nc3ccccc3c2=O)cc1 | 1% | -4%
O=c1c2ccccc2c(-c2ccc(Cl)cc2)nn1-c1ccccc1 | 11% | -13%
Cc1ccccc1NS(=O)(=O)c1ccc2c(c1)n(C)c(=O)n2C | 18% | -8%
O=C(O)C1CSC2(CCN(Cc3ccccc3)CC2)N1 (centres undefined) | 1% | 6%
CC1CCCCN1CCNC(=O)C1CCN(S(=O)(=O)c2cccc3nsnc23)CC1 (centres undefined) | ? | 6%
C=CCn1c(-c2ccccc2OCC)n[nH]c1=S | 2% | 10%

Record cards, as listed above. Screens in order: N370S GC, FEN1 inhibitor
`O=C(COC(=O)Cc1ccsc1)Nc1ccc(F)cc1Cl` across the screens: nt, 4%
`O=C(Nc1ccc(Cl)cc1)c1csc(-c2ccncc2)n1` across the screens: 5%, -4%
`Cc1ccc(-c2noc(CCCOc3ccc(Cl)cc3Cl)n2)cc1` across the screens: 5%, -6%

The list continues:
SMILES | N370S GC | FEN1 inhibitor
O=C(NCc1ccccc1Cl)C1CCN(C(=O)c2ccco2)CC1 | -1% | 2%
O=C(NNS(=O)(=O)c1ccccc1)c1cc2cc3ccccc3nc2s1 | -6% | -1%
CC(C)CCCC(C)C1CCC2C3CC=C4CC(O)CC[C@@]4(C)C3CC[C@@]12C (some centres undefined) | 0% | nt
CCOC(=O)c1cc2c(n(-c3ccccc3)c1=O)CC(C)(C)CC2=O | 13% | 12%
CC(=O)N1CCC(C(=O)NC2CCCc3c2cnn3-c2cc(F)cc(F)c2)CC1 (centres undefined) | -7% | 3%
COc1ccc(NC(=O)CSc2nc(N)c(C(=O)Nc3ccc(N(C)C)cc3)s2)cc1 | 3% | -8%
C=CCOc1c(Br)cc(/C=N/NC(N)=O)cc1OC | ? | -7%
CSCC[C@H](NC(=O)c1nn(C)c(=O)c2ccccc12)c1nc2ccccc2[nH]1 | 2% | 13%
COc1ccc2c(c1)[nH]c(=O)c1sc3ccccc3c12 | -6% | -4%
O=C(OCCCOC(=O)c1ccc(Br)o1)c1ccc(Br)o1 | -15% | 3%
O=C(N/N=C/C=C/c1ccccc1[N+](=O)[O-])c1cccnc1 | -5% | 8%
Cc1cc(C)c(S(=O)(=O)NCCc2cc3ccc(C)cc3[nH]c2=O)c(C)c1 | nt | 11%
